High-throughput results from PubChem BioAssay.
CtBP-E1A inh = qHTS Assay for Inhibitors of the CtBP/E1A Interaction; CtBP / adenovirus E1A interaction (AlphaScreen); AlphaScreen GST-E1A/His-CtBP binding, 1536-well; stronger effect = lower value; control for the full effect not named in the record; activity change, % (no concentration beside the values); hit rate 0.49% among 340,000; AID 651724, 2012; in the data active means activity change below about -65%; inconclusive means about -30% to -65%; inactive means above about -30%; note: % is set by controls: 0 for no effect and ±100 for the full control effect; compound concentration not given in the record
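In 5 uL wells, 23 nL compound meets equimolar GST-E1A and His-CtBP (5X stock 125 nM each) for 2 h, 37 °C. Beads (5X, 50 ug/mL) then 1 h, 37 °C, dark.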
D2 potentiator = Beta-Arrestin HTS for Positive Allosteric Modulators of the Human D2 Dopamine Receptor: Potentiators; D(2) dopamine receptor (Homo sapiens), P14416; DiscoveRx D2 beta-arrestin cells, luminescence, 90 min; 100% = 57 uM dopamine signal; potentiation, % (test concentration not listed); hit rate 0.23% among 360,000; AID 624464, 2012; active = potentiation of 50% or more; inconclusive = 30% to 50%; inactive = 30% or less;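 note: compound concentration not given in the record; tested on top of an EC20 dose of dopamine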
Target sequence (P14416 whole entry, looked up): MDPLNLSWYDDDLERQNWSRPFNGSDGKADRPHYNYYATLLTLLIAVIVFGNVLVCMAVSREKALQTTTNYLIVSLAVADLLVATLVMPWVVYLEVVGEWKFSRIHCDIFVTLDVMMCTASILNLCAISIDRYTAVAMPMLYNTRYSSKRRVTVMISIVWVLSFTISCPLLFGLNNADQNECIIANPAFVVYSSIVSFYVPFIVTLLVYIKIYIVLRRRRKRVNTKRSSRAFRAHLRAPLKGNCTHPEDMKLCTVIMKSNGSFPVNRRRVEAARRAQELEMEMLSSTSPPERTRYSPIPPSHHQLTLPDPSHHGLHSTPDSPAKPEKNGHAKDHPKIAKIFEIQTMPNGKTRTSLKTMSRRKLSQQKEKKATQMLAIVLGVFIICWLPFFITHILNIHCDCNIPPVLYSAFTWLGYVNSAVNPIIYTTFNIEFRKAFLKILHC
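PathHunter beta-arrestin assay in DiscoveRx D2 cells. Compounds were added with an EC20 of dopamine (50 nM final) for 90 min at 37 deg C. Luminescence was read 1 h after detection reagent, with 57 uM dopamine as the EC100 control.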
PINK1 expr mod = A Quantitative High throughput Screen to Identify Chemical Modulators of PINK1 Expression | PINK1 immunofluorescence, high-content cytometry, 24 h | Potency, µM (series often up to 76.6 µM), for the others: at the top dose activation (PINK1 increase), actives largely listed as activators | hit rate 0.2% among 410,000 | AID 624263, 2012; active = well fitted activation curve with a large enough effect; inconclusive = small, poorly fitted or top-dose-only effect; inactive = flat fitted curve, though single readings scatter; cell line not stated here;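 note: potency is the fitted concentration of half-maximal effect; % of control where 0% means no effect; nearly all actives have a fitted effect of over 65% in size; a mitochondrial uncoupler was the plate control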
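Stable cell line treated 24 h with compounds at 5 concentrations (CCCP controls), then fixed and immunostained for PINK1 plus nuclear and cell stains; PINK1 immunofluorescence quantified by laser-scanning microplate cytometry.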
D2 agonist = Beta-Arrestin HTS for Positive Allosteric Modulators of the Human D2 Dopamine Receptor: Agonists; D(2) dopamine receptor (Homo sapiens), P14416; DiscoveRx PathHunter D2 beta-arrestin, luminescence, 90 min; 100% = 57 uM dopamine signal; activation, % (no concentration beside the values); hit rate 0.084% among 360,000; in the data active = activation above about 40%; inconclusive = about 15% to 40%; inactive = below about 15%; note: compound concentration not given in the record; the text of the record calls up to 30% inactive
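Agonist mode: compounds alone added to overnight-plated D2 PathHunter cells for 90 min at 37 C, with 57 uM final dopamine (EC100) defining full response. Beta-arrestin recruitment detected by chemiluminescent reagent, read after 1 h at ambient temperature.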
TRPML1 ag = qHTS for Agonists of the Human Mucolipin Transient Receptor Potential 1 (TRPML1) | Mucolipin-1 (Homo sapiens), Q9GZU1 | TRPML1-expressing cells, Ca2+ dye fluorescence, FDSS; host cell line not named in the record; reference of the full effect not given here | activation, % (test concentration not listed) | hit rate 0.12% among 410,000 | AID 624414, 2012; in the data active = activation above about 50%; inconclusive = about 30% to 50%; inactive = below about 30%; note: 0% is about no effect; the text of the record puts the active cut at 80%
Target sequence (Q9GZU1 whole entry, looked up): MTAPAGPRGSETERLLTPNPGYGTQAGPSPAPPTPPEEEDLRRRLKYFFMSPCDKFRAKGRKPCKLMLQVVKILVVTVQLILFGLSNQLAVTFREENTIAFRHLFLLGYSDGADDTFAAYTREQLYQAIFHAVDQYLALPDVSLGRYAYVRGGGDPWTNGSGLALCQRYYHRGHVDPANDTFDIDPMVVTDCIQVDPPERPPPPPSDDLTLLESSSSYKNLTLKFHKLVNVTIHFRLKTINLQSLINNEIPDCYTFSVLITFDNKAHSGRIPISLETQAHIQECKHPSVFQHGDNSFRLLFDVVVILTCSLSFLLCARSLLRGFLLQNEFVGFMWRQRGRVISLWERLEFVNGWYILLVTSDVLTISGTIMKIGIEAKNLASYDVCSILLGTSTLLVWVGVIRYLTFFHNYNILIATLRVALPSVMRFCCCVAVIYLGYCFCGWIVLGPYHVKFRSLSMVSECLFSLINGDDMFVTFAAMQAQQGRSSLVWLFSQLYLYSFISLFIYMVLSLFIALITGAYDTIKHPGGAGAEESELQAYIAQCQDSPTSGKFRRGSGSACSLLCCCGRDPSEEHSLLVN
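In this qHTS format, compounds were pin-transferred onto Ca8-dye-loaded TRPML1-DL cells induced with Tet overnight, and intracellular Ca2+ fluorescence was recorded kinetically for 110 s after a 10 s baseline. A subsequent 4uM final 54-4 (EC80) addition followed by a second 110 s read served as the antagonist phase.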
Six1-Eya2 inh = qHTS Assay for Inhibitors of the Six1/Eya2 Interaction. Homeobox protein SIX1 (Homo sapiens) + Protein phosphatase EYA2 (Homo sapiens), …. AlphaScreen GST-Six1/His-Eya2 binding, biochemical; stronger effect = lower value; control for the full effect not named in the record. activity change, % (concentration not given with the values). hit rate 0.56% among 360,000; in the data active = activity change below about -65%; inconclusive = about -30% to -65%; inactive = above about -30%; note: % is set by controls: 0 for no effect and ±100 for the full control effect
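Compounds are tested against tagged Six1 and Eya2 proteins bridged by glutathione donor and nickel acceptor beads; after a one-hour incubation at 37 °C without light, AlphaScreen emission is recorded.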
* marks the source's active call; other numbers are inactive results; ? = inconclusive; nt = not tested or not shown; & = joins results of further samples; [ ] = dose if it differs, or a comment.

Start of the data: the first 5 compounds, ahead of the listing:
SMILES | CtBP-E1A inh | D2 potentiator | PINK1 expr mod | D2 agonist | TRPML1 ag | Six1-Eya2 inh
O=C(Cc1ccccc1)NCCc1cnc[nH]1 | -9 | -6 | 7.0% | -3.8 | 1.4 | 7
Cc1nnc(N(C(=O)c2cnccn2)c2ccccc2)s1 | -3 | 1 | -1.5% | -0.3 | -0.6 | 11
O=C(Nc1ccc(N2CCCC2)c(Cl)c1)c1ccco1 | -2 | -3 | nt | -0.9 | 1.0 | -14
COc1cc(OC)c2c(C)cc(=O)oc2c1C(CCN1CCOCC1)c1ccc2c(c1)OCO2 (stereo not given) | -20 | -22 | -0.2% | 0.9 | -0.6 | -17
CCOc1cc(C(C#N)N2CCCCC2)ccc1OC (stereo not given) | 2 | -12 | 1.8% | -5.0 | 0.2 | 3

Results, from the start:
SMILES | CtBP-E1A inh | D2 potentiator | PINK1 expr mod | D2 agonist | TRPML1 ag | Six1-Eya2 inh
O=C(Cc1ccccc1)NCCc1cnc[nH]1 | -9 | -6 | 7.0% | -3.8 | 1.4 | 7
Cc1nnc(N(C(=O)c2cnccn2)c2ccccc2)s1 | -3 | 1 | -1.5% | -0.3 | -0.6 | 11
O=C(Nc1ccc(N2CCCC2)c(Cl)c1)c1ccco1 | -2 | -3 | nt | -0.9 | 1.0 | -14
COc1cc(OC)c2c(C)cc(=O)oc2c1C(CCN1CCOCC1)c1ccc2c(c1)OCO2 (stereo not given) | -20 | -22 | -0.2% | 0.9 | -0.6 | -17
CCOc1cc(C(C#N)N2CCCCC2)ccc1OC (stereo not given) | 2 | -12 | 1.8% | -5.0 | 0.2 | 3
Cc1onc(-c2ccccc2)c1C(=O)OCC(=O)Nc1ccccc1 | 1 | -27 | 2.2% | -7.3 | 2.1 | 28
COc1ccc(-c2[nH]ncc2CN(C)Cc2c(C)n[nH]c2C)c(OC)c1 | 0 | -4 | 0.7% | 1.2 | 0.7 | 8
Cc1ccc(O)c(C(=O)c2coc(=N)c(C(=O)NC(C)C)c2)c1 | 5 | 3 | -2.0%[38.3 µM] | -2.6 | 0.0 | 1
O=C(CSc1nc2ccccc2s1)Nc1nccs1 | 1 | -14 | nt | -1.9 | 0.1 | 3
O=C(NCc1cccnc1)C(=O)N/N=C/c1ccccc1[N+](=O)[O-] | nt | -28 | -0.3% | -1.7 | 0.9 | 1
CC1=C(SCc2ccccc2)C(=O)c2ccccc2C1=O | ? | -3 | -1.2% | 9.1 | 0.2 | ?
COCCN1CCN(Cc2nc(Cc3ccc(OC)c(OC)c3)no2)CC1 | 9 | -2 | -0.4% | -5.0 | -0.2 | -2
CCCCn1c(N)c(N(CC(C)C)C(=O)Cn2c(=O)cnc3ccccc32)c(=O)[nH]c1=O | 11 | -4 | 0.9% | 1.5 | 1.1 | -4
CCC(NC(=S)NCc1ccccc1)C(=O)O (stereo not given) | 11 | -10 | -4.7% | -2.8 | -0.6 | 5
CSc1ccc(S(=O)(=O)NCC(=O)OC(C)C(=O)NCc2ccccc2)cc1[N+](=O)[O-] (stereo not given) | 22 | -14 | 9.1% | -7.0 | -0.8 | -3
CC(Nc1nc(C(F)(F)F)nc2ccccc12)c1cccs1 (stereo not given) | 12 | -5 | 16% | -1.7 | 0.3 | 16
O=C(NCc1ccccc1)c1ccc(NC(=O)C2CCC2)cc1 | 1 | 0 | 1.0% | -1.4 | 1.1 | 8
Cc1nc(N2CCN(C(=O)CCC(=O)O)CC2)c2c(C)c(C)sc2n1 | 10 | -3 | nt | 0.9 | -0.3 | 5
O=C(NN1CCOCC1)c1ccc(Cl)s1 | 6 | -3 | 0.7% | 5.8 | -0.1 | 2
COC(=O)C1=C(C)N(c2cc(Cl)cc(Cl)c2)C(=O)C1 | -8 | 2 | -0.2% | -0.7 | 12 | 6
COc1cccc(-c2nc(CS(=O)CC(=O)NCc3ccccc3Cl)c(C)o2)c1 (stereo not given) | 1 | -4 | 2.8% | -1.1 | 0.5 | 3
Cc1ccc(C)c(NC(=S)NCc2ccccc2)c1 | 3 | -8 | 0.3% | 1.2 | -0.5 | -8
Cc1noc(C)c1C(=O)N1CCC1(C)C(=O)NS(=O)(=O)c1ccccc1C(F)(F)F (stereo not given) | -22 | -7 | 3.0% | -3.3 | -0.4 | 4
CNC(=O)C(Sc1nc(C)nc2c1oc1ccccc12)C(C)=O (stereo not given) | 5 | -30 | 0.5%[38.3 µM] | -6.0 | 10 | ?
COC(=O)c1ccccc1NC(=O)Cn1cnc2c(cnn2-c2ccc(C)c(C)c2)c1=O | 7 | -5 | 1.8% | -2.4 | 0.1 | 6
Going on with the list:
SMILES | CtBP-E1A inh | D2 potentiator | PINK1 expr mod | D2 agonist | TRPML1 ag | Six1-Eya2 inh
CC(=O)Nc1cccc(/C(C)=N/Nc2ccc(S(=O)(=O)Nc3ccccc3C(=O)O)cc2[N+](=O)[O-])c1 | 2 | -12 | 8.8% | -4.3 | 0.8 | -11
CCNC(=O)COC(=O)c1cc(C)n(-c2ccccc2)c1C | -2 | -4 | -1.1% | 3.1 | 1.2 | 1
O=c1cc(-c2ccccc2)oc2cc(O)c(O)c(O)c12 | -8 | -1 | -0.9%&4.6% | ? | -0.4 | -5
CC(NC(=O)C(=O)NCC1CCCO1)c1ccccc1 (stereo not given) | 6 | -2 | -1.2% | -12 | -0.9 | 0
COc1ccccc1N(CC(=O)NC1CCCCC1)C(=O)CNC(=O)c1cccs1 | -11 | -6 | 0.0% | 1.6 | -0.3 | 10
Cc1ccccc1C(=O)NC=C1C(=O)OC(C)(C)OC1=O | 2 | -4 | 0.8% | 3.1 | 0.1 | 6
CC(C)(C)C(=O)NC(C(N)=O)=C(Cl)Cl | 5 | 2 | 0.7% | -2.7 | -0.2 | 1
NC(=O)c1ncn([C@@H]2O[C@H](CNS(=O)(=O)c3cc(S(=O)(=O)c4ccccc4)cs3)[C@@H](O)[C@H]2O)n1 | 3 | 1 | 2.7% | -0.4 | -1.0 | -4
COc1ccc(-c2c(C#Cc3ccsc3)c3cc(-c4ccc5c(c4)OCO5)ccc3n2C)cc1 | 6 | -3 | 0.2% | -1.1 | -0.2 | 4
O=C(NC1CCS(=O)(=O)C1)C12CC3CC(CC(C3)C1)C2 (stereo not given) | 15 | -11 | nt | -0.9 | -0.2 | 2
O=C(Nc1cccc(-c2cccc(F)c2)c1)C1CCN(CC2CCOC2)CC1 (stereo not given) | -5 | -31 | 6.9% | 0.1 | 2.0 | 20
COC(=O)c1ccc(CSc2ncnc3c2sc2nc(N4CCOCC4)c4c(c23)CCCC4)o1 | -1 | -6 | 8.4% | -2.5 | -0.2 | -5
O=C(c1ccco1)N1CCN(C(=O)c2ccc(COc3ccc(Cl)cc3Cl)o2)CC1 | -18 | 8 | 0.7% | 5.1 | 2.7 | -14
C=CCN1C(=O)C2(OCCCO2)c2cc(Cl)ccc21 | 4 | -6 | 2.8% | -2.4 | 0.2 | 7
Cn1c(=O)c2c(SCC(=O)N3CCCC3)nc(-c3ccccc3)nc2n(C)c1=O | 5 | -7 | 0.7% | -1.5 | 0.0 | -4
COc1ccc(NC(=O)CCNS(=O)(=O)c2cccc(C(C)=O)c2)cc1S(N)(=O)=O | 15 | -5 | 1.6% | -2.6 | -0.5 | -10
O=C(Nc1ccccc1)Nc1nc(-c2ccc(F)c(F)c2)cs1 | -6 | 9 | 11% | 7.7 | -0.6 | -1
Cc1cn(CC(=O)NCCCN2CCCC2=O)c(=O)[nH]c1=O | -17 | -2 | -0.8% | -0.4 | -0.2 | 5
O=C(CN1CCN(c2ccc(F)cc2)CC1)NCc1cccs1 | 0 | -17 | -0.4% | -4.0 | -0.9 | -1
Cc1ccccc1N(CC(=O)NC1CCCCC1)C(=O)CNC(=O)c1cccs1 | -12 | -14 | -0.1% | -2.6 | -0.7 | 4
COc1ccc(NC(=O)C2CC(=O)OC23CCOC(C)(C)C3)cc1 (stereo not given) | -2 | -1 | -2.4% | -6.1 | -0.4 | -6
CC(C)c1c(C(=O)N/N=C/C2CC=CCC2)nnn1-c1nonc1N (stereo not given) | -2 | -6 | 2.5% | -4.0 | -0.1 | 4
CN(C(=O)COC(=O)c1ccccc1SCC(=O)N1CCCC1)C1(C#N)CCCCC1 | 0 | 4 | 2.0% | 1.6 | -0.4 | 9
O=C(c1ccccc1)N1CCN(C(=O)c2cc3ccccc3o2)CC1 | 8 | 3 | 0.6% | -3.5 | 2.9 | -4
CC(C)(C)NC(=O)CSc1nnc(SCC(=O)NC(C)(C)C)s1 | 8 | 8 | 1.7% | 4.3 | 0.1 | -1
Remaining list, next part.
SMILES | CtBP-E1A inh | D2 potentiator | PINK1 expr mod | D2 agonist | TRPML1 ag | Six1-Eya2 inh
Nc1nc(NCCOCCO)nc(N2CCCCCC2)c1[N+](=O)[O-] | -15 | -8 | 2.1% | -0.8 | 1.6 | 7
CN(C(=O)CC1C(=O)NCCN1Cc1ccccc1C(F)(F)F)C1CCOCC1 (stereo not given) | -6 | -11 | 0.4% | -0.7 | 0.3 | 4
Cn1c(N2CCOCC2)c(/C=N/OC(=O)c2ccc(F)cc2)c2ccccc21 | 0 | 141* | 1.3%[38.3 µM] | ? | -0.4 | 2
Cc1cc(Nc2cc(F)ccc2C)n2ncnc2n1 | -5 | -1 | 0.9% | -1.6 | 0.7 | 7
COc1ccccc1/C=C/C(=O)NC(=S)N(C)C1CCCCC1 | -15 | -11 | 3.5%[38.3 µM] | -3.2 | 0.1 | -11
Cc1cc(NS(=O)(=O)c2ccc(NC(=O)C(F)(F)F)cc2)nc(C)n1 | -12 | 0 | 0.9% | 0.5 | 0.5 | 6
Cc1ccccc1Nc1nc(N)nc(COC(=O)c2ccc(O)cc2)n1 | -4 | -2 | -1.1% | 1.2 | 3.1 | -1
COc1ccc(C[C@H]2CN3C(=NC[C@@H]3Cc3ccc(O)cc3)N2C[C@H](C)NC(=O)c2ccc(C)c(Br)c2)cc1 | -1 | -29 | -0.9% | -0.9 | 2.0 | -9
CCOc1cccc(-c2nnc(SCC(=O)Nc3ccc(OC)c(OC)c3)n2N)c1 | -2 | -7 | -0.6%[38.3 µM] | -1.5 | 0.4 | 1
COc1ccc(S(=O)(=O)N2CCOC23CCN(S(=O)(=O)c2ccc([N+](=O)[O-])cc2)CC3)cc1 | 2 | -6 | 2.6% | 10 | 0.2 | -12
O=C(CSc1nncs1)NNC(=O)c1ccco1 | nt | -4 | -0.1% | -4.0 | 0.5 | 7
CC1C(C)N(C(=O)CCCl)c2ccccc2N1C(=O)CCCl (stereo not given) | 0 | -9 | -0.5% | -4.0 | 0.0 | 4
CN(C[C@@H](CC1CCCCC1)N(C[C@H](Cc1ccccc1)N(CCc1ccccc1)N=O)N=O)N=O | -3 | -8 | 0.5% | -2.5 | 1.4 | -9
